Source: PubChem BioAssay
GIRK2 act – activators of human GIRK2 potassium channels. HEK293-GIRK2 thallium flux, Thallos fluorescence. G protein-activated inward rectifier potassium channel 2 (Homo sapiens), P48051. calls only for hits at 25 µM. hit rate 0.05% among 63,000;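 active means among the strongest 0.2% of first-round signals and kept after retests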;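 further: first round at about 10 µM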
Target sequence (P48051 whole entry, looked up): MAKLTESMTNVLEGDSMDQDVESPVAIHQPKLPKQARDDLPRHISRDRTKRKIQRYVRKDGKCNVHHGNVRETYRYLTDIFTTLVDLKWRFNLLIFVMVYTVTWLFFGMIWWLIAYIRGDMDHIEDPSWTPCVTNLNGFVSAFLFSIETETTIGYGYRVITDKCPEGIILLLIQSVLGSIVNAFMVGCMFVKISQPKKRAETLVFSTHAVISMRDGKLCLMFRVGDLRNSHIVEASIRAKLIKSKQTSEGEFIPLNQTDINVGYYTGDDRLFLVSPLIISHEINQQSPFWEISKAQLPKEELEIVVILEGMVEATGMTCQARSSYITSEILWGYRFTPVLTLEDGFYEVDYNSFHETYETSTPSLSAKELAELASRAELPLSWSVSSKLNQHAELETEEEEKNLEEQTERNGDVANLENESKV
Calls only; i = inactive. This is a subset, so the mix of outcomes need not match the whole.

SMILES	GIRK2 act
O=C(C1c2ccccc2Oc2ccccc21)N1CCN(Cc2nnnn2-c2ccc(F)cc2)CC1	i
O=C(/C=C/c1ccc(/C=C/C(=O)Nc2ccc(C3=NCCN3)cc2)cc1)Nc1ccc(C2=NCCN2)cc1	i
Cc1ccc2nc(C3CN(C(=O)NC(C)(C)C)C3)[nH]c2c1	i
O=C1c2oc3ccc(Cl)cc3c(=O)c2C(c2ccc([N+](=O)[O-])cc2)N1c1nccs1 (configuration not stated)	i
O=C(Cn1c(=O)oc2ccccc21)NCCC(O)c1ccc2c(c1)OCO2 (configuration not stated)	i
COCCNC(=O)c1ccc(=O)n(Cc2cccc(F)c2)n1	i
CCS(=O)(=O)N1CCCc2cc(NS(=O)(=O)c3cc(C)c(OC)c(C)c3)ccc21	i
O=C(CSC1CCCC1)NCC1CCC(c2nc3ccccc3[nH]2)CC1 (configuration not stated)	i
Nc1c(C(=O)NC2CCCCC2)c2nc3ccccc3nc2n1/N=C\c1ccccn1	i
C=C(C)Cn1c(=O)c2c(nc3n(CCN4CCOCC4)c(C)cn23)n(C)c1=O	i
O=C(CSc1nccn1-c1ccc(C(=O)NCc2ccccc2)cc1)NCc1ccccc1	i
O=C(NCCC(O)c1ccoc1)c1ccc2nsnc2c1 (configuration not stated)	i
NC(=O)CN1CCN(CC(O)C2CC2)CC1 (configuration not stated)	i
Cn1nc(C2CCN(Cc3nc4ccccc4[nH]3)CC2)n(-c2ccccc2)c1=O	i
CCOc1ccc(C2NC(=O)NC(O)(C(F)(F)F)C2C(=O)c2ccccc2)cc1OC (configuration not stated)	i
COc1ccc(-c2csc(-n3nc(C)cc3NC(=O)Cc3ccc([N+](=O)[O-])cc3)n2)cc1OC	i
COc1ccc(C(=S)N2CCN(C(=O)c3cccs3)CC2)cc1	i
O=C(C1CC=CCC1)N1CCC(CSc2ccccn2)CC1 (configuration not stated)	i
CCN1CCN(Cc2cc(=O)oc3ccc4ccccc4c23)CC1	i
Cc1noc(CNC(=O)C2CCN(C(=O)CCSc3ccccc3)CC2)n1	i
Cc1cn2c3c(=O)n(C)c(=O)n(C)c3nc2n1-c1ccc(S(N)(=O)=O)cc1	i
CSCC(C)(O)CNC(=O)c1cccc(C#N)c1 (configuration not stated)	i
O=C(Nc1ccc(S(=O)(=O)Nc2nccs2)cc1)c1coc(NC(=O)C2CC2)n1	i
COCCN(Cc1ccsc1)C(=O)c1ccccc1F	i
COc1ccc(S(=O)(=O)NCCc2ccc(N(C)C)cc2)cc1Cl	i
CCCCCn1c(=S)[nH]c2cc(C(=O)NCCSCc3ccccc3)ccc2c1=O	i
CCOc1cc(/C=C2\SC(=S)N(c3ccc(F)cc3)C2=O)ccc1O	i
CCc1nc2sc(C(c3ccccc3F)N3CCN(C(C)=O)CC3)c(O)n2n1 (configuration not stated)	i
Cc1nc2ccc(NC(=O)COc3ccc4c(c3)OCO4)cc2c(=O)n1-c1ccc(F)cc1	i
COc1ccc(Cl)cc1NC(=O)NCC1CCN(C(=O)c2ccncc2)CC1	i
O=C(NC(=S)NNC(=O)c1cccs1)c1ccccc1	i
Cc1ccc(C)c(S(=O)(=O)NCC(=O)NCCc2ccccc2)c1	i
Cc1nn(C)cc1S(=O)(=O)NC(c1ccccc1)c1ccccc1	i
CSc1ccccc1NC(=O)C(C)n1nc(-n2nc(C)cc2C)ccc1=O (configuration not stated)	i
O=C(NCCn1nc(C2CC2)n(-c2ccccc2)c1=O)NCc1cccs1	i
O=C(NCc1cccs1)NC1CCCC(OC(=O)Nc2ccccc2)C1 (configuration not stated)	i
O=C1CCC(=O)N1c1ccc(S(=O)(=O)N2CCc3ccccc32)cc1	i
COc1ccc(C(O)=C2C(=O)C(=O)N(CCN(C)C)C2c2ccco2)cc1OC (configuration not stated)	i
Cc1c(C(=O)NCCn2ncccc2=O)nnn1-c1nc(-c2ccccc2)cs1	i
Cc1ccc(-n2ncc3c(C)nnc(SCC(=O)Nc4ccc5c(c4)OCCO5)c32)cc1C	i
O=C(CN1CC(c2nc(-c3cccnc3)no2)C1)Nc1ccc(F)c(Cl)c1	i
Cc1cc(C)n(-c2ccc(=O)n(C(C)C(=O)Nc3cccc4nsnc34)n2)n1 (configuration not stated)	i
O=c1[nH]c2ccccc2nc1-c1ccccc1N=Cc1ccccc1	i
CCCOc1ccc(C2NC(=O)NC(C)=C2C(=O)OCC(C)C)cc1 (configuration not stated)	i
COc1ccc(-c2ccc(SCC(=O)NCCc3cccs3)nn2)cc1OC	i
O=C(CCSc1ccccc1)NCc1ccsc1	i
Cc1[nH]c(=O)[nH]c(=O)c1CCc1nnc(SCC(=O)Nc2cccc(Cl)c2C)o1	i
CC(C)c1nccn1CC1CCN(C(=O)NCc2cccs2)CC1	i
O=C(NCCN1CCN(C(=O)c2cc(-c3cccs3)[nH]n2)CC1)c1ccc2c(c1)OCO2	i
CCn1cnc2c(-c3ccccc3)cn(CC(=O)Nc3ccc(C(=O)OC)cc3)c2c1=O	i
CCc1nccn1CC1CCN(C(=O)c2ccccc2SC)CC1	i
CCCS(=O)(=O)N1CCN(CC(O)c2ccco2)CC1 (configuration not stated)	i
COc1ccc(CCC(=O)Nc2c(C)nc3sc(C)c(C)n3c2=O)cc1	i
CCC(C(=O)Nc1c(C)cccc1C)n1cccc(-c2nc(C3CC3)no2)c1=O (configuration not stated)	i
CCOc1ccc(C2C(S(=O)(=O)c3ccc(C)cc3)=C(O)C(=O)N2c2ccc(OC)cc2)cc1 (configuration not stated)	i
Cn1cccc(C(=O)NCCC(O)c2cccc3ccccc23)c1=O (configuration not stated)	i
Cc1ccccc1N1C=C(C#N)S(=O)(=O)c2ccccc21	i
Cc1noc(-c2ccc(N3CCC(NC(=O)C4(c5ccccc5)CC4)C3)nc2)n1 (configuration not stated)	i
O=C(c1ccc(Cl)cc1)N1CCN(Cc2nnnn2-c2ccccc2)CC1	i
O=C(Cc1cccs1)N1CCC(Oc2ccc(C(F)(F)F)cn2)CC1	i
(further entries)
SMILES	GIRK2 act
N#Cc1nc(-c2ccc(S(=O)(=O)N3CCCCC3)cc2)oc1N1CCN(c2ccccc2)CC1	i
O=C(c1ccco1)N1CCCSCC1CN1CCCC1 (configuration not stated)	i
CCOc1ccc(NS(=O)(=O)c2n[nH]c(C)c2C(=O)Nc2ccc(OC)cc2)cc1	i
O=C(CSC1CCCC1)N1CCN(C(=O)C2CC2c2ccccc2)CC1 (configuration not stated)	i
Cn1cc(CC(=O)NCc2ccsc2)c2ccccc21	i
C#CCOCC1CCCN(S(=O)(=O)c2ccc(C(C)=O)cc2)C1 (configuration not stated)	i
O=C(Nc1nc2c(s1)CN(S(=O)(=O)/C=C/c1ccccc1)CC2)c1ccoc1	i
COc1ccc(S(=O)(=O)N2CCCOC2CNC(=O)C(=O)NC(C)C)cc1 (configuration not stated)	i
Cc1cc(NS(=O)(=O)c2ccc(NC(=O)c3ccc(-n4nc(C)cc4C)nn3)cc2)nc(C)n1	i
COC(=O)COc1ccc2c(c1)O/C(=C\c1cccc(OC)c1OC)C2=O	i
COc1ccc(C(=O)Nc2sc3c(c2-c2nc4ccccc4s2)CCN(C(C)=O)C3)cc1	i
O=C(NC12CC3CC(CC(C3)C1)C2)C1COCC(=O)N1Cc1ccccc1 (configuration not stated)	i
Cc1ccc(CNC(=O)C(=O)NCCC(O)c2ccccc2)cc1 (configuration not stated)	i
Cc1ccc(C(O)CNC(=O)Nc2c(F)cccc2F)o1 (configuration not stated)	i
CC(C)CC(=O)OC1OC=C(CO[C@@H]2O[C@H](CO)[C@@H](O)[C@H](O)[C@H]2O)C2CC(O)C(O)(CO)C12 (some centres not stated)	i
CSc1ccccc1CN1CCC(CNC(=O)C(=O)Nc2cc3c4c(c2)CCN4C(=O)CC3)CC1	i
Cc1ccc(-c2ccc(=O)n(C(C)C(=O)NCCOc3ccc4nnc(-c5ccccc5)n4n3)n2)cc1 (configuration not stated)	i
COc1ccc(N2CC(c3nc4ccccc4n3CC(=O)N(c3ccccc3)C(C)C)CC2=O)cc1 (configuration not stated)	i
Cc1cccc(S(=O)(=O)NCc2ccc(C(=O)c3cccs3)s2)c1	i
COc1ccc(-c2noc(CSc3nc4ccsc4c(=O)n3C)n2)cc1OC	i

3 structures out of the list, sorted by length of the SMILES, lowest first:
SMILES	GIRK2 act
O=C(Nc1nc2c(s1)CN(S(=O)(=O)/C=C/c1ccccc1)CC2)c1ccoc1	i
Cc1cc(NS(=O)(=O)c2ccc(NC(=O)c3ccc(-n4nc(C)cc4C)nn3)cc2)nc(C)n1	i
Cc1ccc(-c2ccc(=O)n(C(C)C(=O)NCCOc3ccc4nnc(-c5ccccc5)n4n3)n2)cc1 (configuration not stated)	i

(further entries)
SMILES	GIRK2 act
Cc1ccc(C(=O)O)cc1N1C(=O)C=CC1=O	i
COc1ccccc1CCN1COc2ccc3c(=O)c(-c4ccccc4OC)coc3c2C1	i
COc1cccc2sc(N(C)CC(=O)Nc3ccc(F)c(F)c3)nc12	i
Cc1ccc(N2CCC(C(=O)Nc3ccc4c(c3)Cc3ccccc3-4)CC2)nn1	i
COc1cccc2cc(C(=O)Nc3cccc(N4CCCS4(=O)=O)c3)oc12	i
COc1ccc(C(=O)Nc2ccc(N3CCCS3(=O)=O)cc2)cc1	i
O=C(Cn1c(=O)oc2ccccc21)N1CCN(c2nc3ccc([N+](=O)[O-])cc3s2)CC1	i
O=S(=O)(NCCOc1ccccc1)c1ccc(OC(F)(F)F)cc1	i
COc1ccc(-c2ccc(N3CCCC(C(=O)NCCCn4ncccc4=O)C3)nn2)cc1 (configuration not stated)	i
COCCCn1c(-c2cccs2)nc2c(c(=O)c3ccccc3n2C)c1=O	i
O=C(NCCS(=O)(=O)NCc1ccccc1)c1ccc2c(c1)OCO2	i
Cn1c(=O)c2c(nc3n2CCN3c2cccc(OCc3ccccc3Cl)c2)n(C)c1=O	i
O=C(c1ccc(=O)n(Cc2cccc(F)c2)n1)N1CCCc2ccccc21	i
COc1cccc(-c2noc(Cn3cc(-c4nc(C)no4)ccc3=O)n2)c1OC	i
COC(=O)Nc1nc(CC(=O)Nc2nc(-c3ccco3)cs2)cs1	i
O=C(c1cc(=O)c(OCc2ccc(F)cc2)c[nH]1)N1CCN(c2ccccc2F)CC1	i
Cn1cc(C(=O)N2CC(c3nc(-c4cccs4)no3)C2)nn1	i
Cc1cc(NC(=O)c2nccnc2-c2nc3ccccc3s2)no1	i
CCOC(=O)c1c(NCc2cccs2)c2cc(F)ccc2[nH]c1=O	i
COc1ccc(CCS(=O)(=O)NCCC(O)c2ccccc2)cc1 (configuration not stated)	i
CCCc1cnc2c(c1SC(CC)C(=O)O)c(=O)n(C)c(=O)n2C (configuration not stated)	i
COC(=O)c1scc(-c2ccc(C)cc2)c1S(=O)(=O)N1CCN(c2ccc(C(C)=O)cc2)CC1	i
COc1ccc(NC(=O)c2cnc3c(c(C)nn3-c3ccccc3)c2Cl)cc1OC	i
Cc1nnc(CNC(=O)c2cccc(-n3ccc4ccccc43)c2)o1	i
CCOC(=O)c1[nH]c(C)c(C(O)=C2C(=O)C(=O)N(CCN(C)C)C2c2ccncc2)c1C (configuration not stated)	i
CSc1ccc2nc(N3CCN(C(=O)Nc4ccccc4F)CC3)sc2c1	i
Cc1cccc(S(=O)(=O)NCc2cc(-c3ccncc3)n(C3CCCC3)n2)c1	i
Cn1ccnc1SCC1CCN(C(=O)c2ccco2)CC1	i
Cn1cc(C(=O)N2CCCCCC2)cc(NC(=O)C2CC(=O)N(c3ccccc3)C2)c1=O (configuration not stated)	i
CCc1ccc(NC(=O)Cn2cc(S(=O)(=O)c3ccc(C)cc3)c(=O)c3ccccc32)cc1	i
COc1ccc(NC(=O)Cn2cnc(-c3noc(-c4cccnc4)n3)c2)cc1	i
CC(=O)N1CCc2ccc(O)c(OC3OC(COC4OCC(O)(CO)C4O)C(O)C(O)C3O)c2C1Cc1ccc(O)cc1 (configuration not stated)	i
COc1ccc(S(=O)(=O)N2CCN(CC(O)C3CC3)CC2)cc1 (configuration not stated)	i
COC(=O)c1ccc(NC(=O)C(=O)NCCC(O)c2cc(C)oc2C)cc1 (configuration not stated)	i
CC(C)(O)C(O)CCC(CO)C1CCC2(C)C3=C(CC(O)C12C)C1(C)CC(O)C(O)C(C)(C)C1CC3 (configuration not stated)	i
CCOC(=O)c1ccc(Oc2c(C)oc3cc(OS(C)(=O)=O)ccc3c2=O)cc1	i
Cc1cc(C)cc(NC(=O)Cn2nc(N3CCSCC3)c3ccccc3c2=O)c1	i
Cc1nn(C(C)(C)C)c(OC(=O)c2ccccc2Br)c1S(=O)(=O)c1ccccc1	i
Cc1cc(C)n(CCNC(=O)c2coc(NC(=O)C3CC3)n2)n1	i
Cc1cc(=O)n2c(-c3ccc(NC(=O)NCc4ccccc4)cc3)csc2n1	i
COc1ccc(OCC(O)Cn2c(NCCCN3CCOCC3)nc3c2c(=O)[nH]c(=O)n3C)cc1 (configuration not stated)	i

Among those listed so far, these contain two or more sulfur atoms:
SMILES	GIRK2 act
CCS(=O)(=O)N1CCCc2cc(NS(=O)(=O)c3cc(C)c(OC)c(C)c3)ccc21	i
COc1ccc(C(=S)N2CCN(C(=O)c3cccs3)CC2)cc1	i
O=C(Nc1ccc(S(=O)(=O)Nc2nccs2)cc1)c1coc(NC(=O)C2CC2)n1	i
CCCCCn1c(=S)[nH]c2cc(C(=O)NCCSCc3ccccc3)ccc2c1=O	i
CCOc1cc(/C=C2\SC(=S)N(c3ccc(F)cc3)C2=O)ccc1O	i
O=C(NC(=S)NNC(=O)c1cccs1)c1ccccc1	i
COc1ccc(-c2ccc(SCC(=O)NCCc3cccs3)nn2)cc1OC	i
O=C(CCSc1ccccc1)NCc1ccsc1	i
O=C(Nc1nc2c(s1)CN(S(=O)(=O)/C=C/c1ccccc1)CC2)c1ccoc1	i
COc1ccc(C(=O)Nc2sc3c(c2-c2nc4ccccc4s2)CCN(C(C)=O)C3)cc1	i
Cc1cccc(S(=O)(=O)NCc2ccc(C(=O)c3cccs3)s2)c1	i
COc1ccc(-c2noc(CSc3nc4ccsc4c(=O)n3C)n2)cc1OC	i
COC(=O)Nc1nc(CC(=O)Nc2nc(-c3ccco3)cs2)cs1	i
COC(=O)c1scc(-c2ccc(C)cc2)c1S(=O)(=O)N1CCN(c2ccc(C(C)=O)cc2)CC1	i
CSc1ccc2nc(N3CCN(C(=O)Nc4ccccc4F)CC3)sc2c1	i
